MT1-MMP act inh: inhibitors of human MT1-MMP activation. P50281. HT1080 RFP-PRO-GFP cells, GFP/RFP ratio fluorescence, overnight; percent of plate control window, DMSO zero. GFP/RFP ratio change, % at 20 µM. hit rate 0.061% among 360,000;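 active = GFP/RFP ratio change of at least 30% with cell ATP level not reduced by more than half and red fluorescence within 50% of control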; also: strong numbers were not always called active
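Read-out: GFP/RFP fluorescence ratio; Test system: RFP-PRO-GFP reporter HT1080 cells; Compound dosing: single-point 20 µM compound, 1% DMSO; Times: overnight compound exposure at 37 °C.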
Rce1 inhib: inhibitors of yeast Ras-converting enzyme; Q03530; yeast membranes, quenched prenylated peptide cleavage fluorescence; calls only; hit rate 0.27% among 290,000; AID 2563;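 active = fall in fluorescence gain of 50% or more versus controls, with final raw signal at or below 3038400; inconclusive = same 50% fall but final raw signal above 3038400; inactive = fall in fluorescence gain under 50%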;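 also: plate controls were neutral control wells for no effect and wells lacking membranes for full effect; tested at 10 µM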
Target sequence (Q03530 whole entry, looked up): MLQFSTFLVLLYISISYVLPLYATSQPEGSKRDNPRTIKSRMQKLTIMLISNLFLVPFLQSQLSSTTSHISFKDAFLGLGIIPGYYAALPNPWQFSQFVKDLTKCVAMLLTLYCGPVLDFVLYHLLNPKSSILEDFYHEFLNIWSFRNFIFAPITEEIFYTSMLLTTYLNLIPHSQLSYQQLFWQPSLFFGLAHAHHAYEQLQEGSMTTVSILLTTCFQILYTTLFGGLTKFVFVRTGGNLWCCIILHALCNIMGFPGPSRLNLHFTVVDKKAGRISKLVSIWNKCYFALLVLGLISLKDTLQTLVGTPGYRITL
HIV Env fusion: inhibitors of HIV Env-mediated cell fusion. HeLa-JRFL Env/CEM21 cell fusion, luciferase. hit rate 1.1% among 360,000. inhibition, % at 12.3 µM;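 active = mean replicate inhibition score of at least 50 and every replicate individually at or above 50; inconclusive = only one of the two criteria met; inactive = mean below 50 and not all replicates reaching 50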;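 also: 0% = plate neutral controls and 100% = maraviroc near 300 nM; one replicate is shown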
CSC inhib: blocks cancer stem cells. inhibition, % at 7.5 µM. AID 2717. hit rate 1.1% among 300,000. cancer stem cell-like cells viability, luminescence;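 active = mean at 75% or more and at least half the replicates too; inconclusive = mean and replicates disagree; tested in HMLE shEcad cells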;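 also: 0% = median of negative and 100% = median of positive control wells; the first replicate is given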
UUG fidelity: yeast start codon fidelity modulation | S. cerevisiae UUG-firefly luciferase reporter, luminescence/redox ratio | activity score, % at 18.7 µM | hit rate 0.13% among 350,000 | AID 602363;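 active = replicate mean at a twofold rise or more, about +100% in these data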;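 also: firefly luciferase made from a UUG start codon reports start codon fidelity; reporter light over untreated wells divided by growth signal over untreated wells; some hits fall short of that in this replicate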
PABP FP inh: PABP-poly(A) binding inhibition; P11940; PABP-poly(A) RNA binding, fluorescence polarization; inhibition, % at 35 µM; hit rate 1% among 290,000; AID 2014;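 active = 50% or more with normal probe brightness, or confirmed in later tests; inconclusive = above 50% with abnormal brightness, or retests that disagree; inactive = below 50% or failed in later tests; about a fifth of its hits are not listed in these tables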;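 also: calls also rest on retests at 20 µM and on dose response follow-up; controls were probe without protein and protein plus probe with vehicle; some compounds called inactive have numbers as strong as hits; many hits fall short of the cut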
Target sequence (P11940 whole entry, looked up): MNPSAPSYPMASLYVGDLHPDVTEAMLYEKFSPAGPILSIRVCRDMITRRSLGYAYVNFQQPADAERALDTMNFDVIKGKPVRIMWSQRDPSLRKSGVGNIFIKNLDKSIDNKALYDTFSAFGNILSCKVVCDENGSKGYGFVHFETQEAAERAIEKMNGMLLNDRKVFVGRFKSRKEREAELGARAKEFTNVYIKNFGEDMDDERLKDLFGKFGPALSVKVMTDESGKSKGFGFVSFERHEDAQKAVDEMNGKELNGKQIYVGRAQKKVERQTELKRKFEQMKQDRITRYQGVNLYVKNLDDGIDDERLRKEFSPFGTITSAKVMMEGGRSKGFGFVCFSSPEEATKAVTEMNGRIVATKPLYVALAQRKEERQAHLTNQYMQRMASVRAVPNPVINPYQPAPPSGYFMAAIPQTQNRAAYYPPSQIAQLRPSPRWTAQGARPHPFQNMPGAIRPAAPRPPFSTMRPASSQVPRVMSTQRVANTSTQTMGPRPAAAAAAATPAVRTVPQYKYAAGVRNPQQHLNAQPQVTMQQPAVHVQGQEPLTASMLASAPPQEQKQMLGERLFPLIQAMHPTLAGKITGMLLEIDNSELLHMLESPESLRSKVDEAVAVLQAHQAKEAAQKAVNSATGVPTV
eIF4H inh: inhibitors of RNA binding by human eIF4H; AID 2012; eIF4H fluorescence polarization binding assay; inhibition, % at 35 µM; hit rate 0.94% among 290,000;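 active = 50% or more with normal probe brightness, or confirmed in later tests; inconclusive = above 50% with abnormal brightness, or retests that disagree; inactive = below 50% or failed in later tests; about a fifth of its hits are not listed in these tables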;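 also: calls also rest on retests at 20 µM and on dose response follow-up; 0% = protein and probe with vehicle and 100% = probe without protein; strong numbers were not always called active; many hits fall short of the cut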
eIF4H inh retest: recorded beside eIF4H inh, whose call it bears; inhibition, %; compound at 20 µM; confirmation average;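 mean of two retest wells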
PABP FP inh retest: further read-out of PABP FP inh, marked with its call; inhibition, %; compound at 20 µM; confirmation repeats;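 mean of two retest wells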
MT1-MMP act inh RFP: also measured in MT1-MMP act inh; calls as there; RFP signal change, %; measured here: RFP expression control read;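 0 = vehicle wells; hits needed this value within 50% of zero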
Starred values were filed as active, the others as inactive; i = inactive; ? = inconclusive; / = not tested or not shown; & = joins results of further samples.

SMILES	MT1-MMP act inh	MT1-MMP act inh RFP	Rce1 inhib	HIV Env fusion	CSC inhib	UUG fidelity	PABP FP inh	eIF4H inh	others
COC(=O)c1ccccc1NC(=O)CN1CCC(NC(=O)c2ccccc2C)CC1	-1	0	i	15	-3	-26	-9	-8
CCN(CC)S(=O)(=O)c1ccc2[nH]cc(C(=O)NCCN3CCCCC3C)c(=O)c2c1 (stereo unspecified)	-2	4	/	-25	-12	4	-3	-3
CC(=O)NCC(=O)OCC(=O)c1ccc2ccccc2c1	9	-2	i	-143	-5	5	0	-4
CCOC(=O)C1(Cc2cccc(OC)c2)CCCN(CCO)C1 (stereo unspecified)	-4	6	i	18	7	-6	0	1
N#Cc1ccc(COC(=O)c2ccc3c(=O)[nH]c(CN4CCOCC4)nc3c2)cc1	-3	3	i	-10	5	-16	-2	1
Cc1cc(=O)[nH]c(SCc2nc3ncccn3c2Br)n1	4	6	i	-20	-7	/	5	-3
N#Cc1c(-c2ccco2)cc(C2CC2)nc1SCC(=O)c1ccccc1	-15	5	i	/	49	/	0	35
O=S(=O)(Nc1ccc(S(=O)(=O)N2CCOCC2)cc1)c1ccc(Br)cc1	2	5	i	-4	-9	-7	6	-1
COCCNC(=O)C1(C)CCCN(Cc2ccc(OCc3ccccc3)cc2)C1 (stereo unspecified)	5	3	/	-7	/	-12	/	/
COc1cccc(OCC(=O)O/N=C(\N)c2ccncc2)c1	-1	-6	i	-29	/	-22	4	-2
Cc1ccc2c(c1)N(C(=O)CCC(=O)Nc1ccccc1Cl)CC(C)O2 (stereo unspecified)	3	1	i	-2	-12	11	87	-16	eIF4H inh retest=-2;PABP FP inh retest=3
CCC(=O)Nc1nc2ccc(NC(C)=O)cc2s1	-7	-4	i	-53	-3	-17	-12	-11
CCOc1ccccc1NC(=O)C1CCN(S(=O)(=O)c2c(C)noc2C)CC1	1	1	i	-54	-12	1	-8	-8
COC(=O)CCNc1n[nH]c(=O)[nH]c1=O	2	3	i	10	-17	-9	-4	-7
Cc1ccc2c(c1)N(C(=O)CCC(=O)N1CCOCC1)CC(C)O2 (stereo unspecified)	-1	3	i	-35	-2	-8	-2	-2

Next section, starting with the last 4 of the part before.
SMILES	MT1-MMP act inh	MT1-MMP act inh RFP	Rce1 inhib	HIV Env fusion	CSC inhib	UUG fidelity	PABP FP inh	eIF4H inh	others
CCC(=O)Nc1nc2ccc(NC(C)=O)cc2s1	-7	-4	i	-53	-3	-17	-12	-11
CCOc1ccccc1NC(=O)C1CCN(S(=O)(=O)c2c(C)noc2C)CC1	1	1	i	-54	-12	1	-8	-8
COC(=O)CCNc1n[nH]c(=O)[nH]c1=O	2	3	i	10	-17	-9	-4	-7
Cc1ccc2c(c1)N(C(=O)CCC(=O)N1CCOCC1)CC(C)O2 (stereo unspecified)	-1	3	i	-35	-2	-8	-2	-2
CCCS(=O)(=O)c1c(S(=O)(=O)CCC)c2c3ccccc3ccn2c1C(=O)OC	1	2	i	-54	12	-10	-5	-3
Cc1ccc(-c2nnc(SCC(N)=O)nc2-c2ccc(C)cc2)cc1	3	3	i	7	-20	1	-2	-6
CCOC(=O)CN(C(=O)COc1nc(C)cc(C)c1C#N)c1cccc(Cl)c1	4	4	i	2	-4	0	6	-2
O=C(O)c1ccc(N=Nc2c(O)ccc3ncccc23)cc1	18	-5	i	-57	48	-46	45*	90*	eIF4H inh retest=87*;PABP FP inh retest=69*
O=c1[nH]nc(CNc2cccc(C(F)(F)F)c2)c2ccccc12	2	-12	i	22	9	-7	-14	13
CC(C)c1onc(C(=O)Nc2cccc(Cl)c2)c1[N+](=O)[O-]	-2	2	i	-13	-3	/	1	-1
CC1CN(Cc2nc3c(c(=O)n(C)c(=O)n3C)n2CCCc2ccccc2)CC(C)O1 (stereo unspecified)	-1	-1	i	/	15	4	/	/
O=C(COc1ccccc1)NCCc1nc2ccccc2[nH]1	-8	-4	i	50	0	-33	1	-1
Cn1c(=O)c(S(=O)C2CCCCC2)c(O)c2ccccc21 (stereo unspecified)	3	4	i	-1	-16	/	/	/
CC1CCCC(C)N1c1nnc(NC(=O)c2cc(-c3ccc(Br)cc3)on2)s1 (stereo unspecified)	-7	-20	i	-14	64	-13	-2	-9
CCOC(Cn1c(-c2ccc(OC)cc2)nc2ccccc21)OCC	2	3	i	-86	-12	-25	11	-9
Cc1cc(C)n(CC2CC(=O)N(c3ccc(Cl)cc3)C2=O)n1 (stereo unspecified)	-1	-1	i	11	-3	/	6	0
CC(O)(c1cccnc1)c1nc(-c2ccc(S(C)(=O)=O)cc2)cs1 (stereo unspecified)	0	-8	/	-7	/	-19	/	/
Cc1cc(NC(=O)c2cc(C)on2)n(-c2ccccc2)n1	1	4	i	30	-1	/	-2	5
COc1ccccc1N1CCN(C(=O)c2ccc(Cl)c(S(=O)(=O)N3CCCC3)c2)CC1	3	-11	i	20	-2	-10	-12	-6
O=C(CN(Cc1ccc(Cl)cc1)C(=O)c1csnn1)NCc1ccccc1	1	4	i	2	-14	-28	-4	1
O=C(O)c1ccc(N/N=C2/CCCc3ccccc32)cc1	-5	1	i	5	-10	/	2	5
Nc1cc(C(=O)OCC(=O)N2CCCC2=O)ccc1Cl	-1	4	i	66*	-9	1	/	/
C[C@@H]1CN([C@@H](C)CO)C(=O)CCCn2nncc2CO[C@H]1CN(C)Cc1ccc2cccnc2c1	4	1	/	10	/	-15&-7&-11	/	/
Cc1cc(C)c(C#N)c(SCc2ccc(F)cc2)n1	2	0	i	13	2	/	-13	-16
COC(=O)c1ccccc1-c1c2ccc(=N)cc-2oc2cc(N)ccc12	-12	49	/	53	/	-91	/	/
CCCCC[n+]1ccn(C2=C([O-])c3ccccc3C(=O)/C2=N\S(=O)(=O)c2ccccc2)c1	-7	-7	i	13	-10	5	6	7
O=[N+]([O-])c1ccc(N(c2ccccc2)c2ccccc2)cc1	-10	-4	i	33	4	-18	?	?
Cc1ccc(-c2nnc(SCc3nc(N)nc(Nc4ccccc4C)n3)n2N)cc1	2	-1	i	/	-3	-18	-11	-9
NS(=O)(=O)c1ccc(NC(=S)N2CCN(c3ccc(Cl)c(Cl)c3)CC2)cc1	-1	-17	i	?	-4	-18	2	-5
Cc1cc(C)n(CC(=O)NNC(=O)c2ccc(OC(F)(F)F)cc2)n1	2	8	/	10	-21	-4	/	/
Cc1cc(C)cc(OCC(=O)Nc2ccc(N3CCN(C(=O)c4ccco4)CC3)cc2)c1	-5	-13	i	/	1	2	-3	-12
Cc1ccc(NC(=O)C2CCN(S(=O)(=O)c3ccc4c(c3)OCCO4)CC2)nc1	6	-8	i	18	/	/	/	/
CCC(OC(=O)CN1C(=O)C(=O)c2ccccc21)C(=O)Nc1ccc(S(N)(=O)=O)cc1 (stereo unspecified)	2	5	i	0	4	/	32	2
CCOC(=O)N1CCN(CC(=O)Nc2c(C(=O)OC)[nH]c3ccccc23)CC1	1	-1	i	/	/	3	28	2
Cc1nn(C)c(Oc2ccccc2)c1CCNS(=O)(=O)c1ccccc1	-2	-9	i	-8	-14	-6	2	12
CCOc1ccc(/C(O)=C2/C(=O)C(=O)N(CCOCCO)C2c2ccccc2)cc1 (stereo unspecified)	0	5	i	/	-10	38	1	-9
COCCn1c(C)cc(C(=O)CSc2ccc(NC(C)=O)cc2)c1C	5	3	i	-66	4	/	1	2
O=[N+]([O-])c1cccc2ccc(/C=C/c3ccc(F)cc3)nc12	3	2	i	/	/	-1	0	-9
OCc1cccc[n+]1CCc1ccccc1	-1	0	i	-3	-8	-20	/	/
CCCc1cc(=O)oc2c(C)c(OCC(=O)N3CCC(C(=O)O)(c4ccccc4)CC3)ccc12	8	3	i	/	2	-13	16	13
Cc1nc2ncnn2c(N2CCN(C(=O)Cc3cccs3)CC2)c1C	5	-1	i	-72	/	-6	2	28
CCOc1cc(/C=N/O)cc(Br)c1OCC(=O)NCc1ccccc1	-2	-2	i	-7	2	-8	-2	-4
COc1ccccc1Cn1c(-c2ccccc2OC)nc2ccccc21	-2	-3	i	13	1	/	3	-4
Cn1cccc1/C=N/NC(=O)C12CC3CC(CC(C3)C1)C2	2	9	i	-1	/	/	-7	4
CCCCn1c(=O)nc2n(-c3ccc(Cl)cc3)c3ccccc3cc-2c1=O	3	3	i	/	16	/	6	-2
O=C(NCCCN1CCOCC1)C(=O)N/N=C/c1c(Cl)cccc1Cl	-1	-1	i	14	4	/	-4	-3
CCN(CC)S(=O)(=O)c1ccc(N2CCCC2)c(NC(=O)Cc2ccccc2)c1	8	-4	i	13	30	/	17	14
CCN(CC)S(=O)(=O)c1ccc(C(=O)NC(=S)N(CCC#N)Cc2cccnc2)cc1	0	-1	i	2	-18	-18	2	-2
CCCOc1ccc(/C=C/C(=O)N2CCOCC2)cc1	-2	-1	i	-19	-27	1	6	-2
CCOC(=O)/C=C/C(=O)Nc1cc(S(=O)(=O)Nc2ccc(OC)cc2)ccc1N1CCOCC1	-1	-13	/	39	/	-8	/	/
O=C(NCc1ccco1)c1ccc(=O)[nH]n1	-4	1	i	/	-10	-4	1	1
CC(C)(C)c1nc2sc3c(c2c(=O)o1)CCCC3	0	7	i	-177	-5	-14	3	-3
CCC(C)(C)NC(=O)C(c1ccc(C)cc1)N(Cc1ccco1)C(=O)CCC(=O)Nc1nccs1 (stereo unspecified)	-4	2	i	/	6	-18	4	-5
COc1cccc(OCc2nnc(SCC(=O)NNC(=O)C3CCCCC3)n2C)c1	3	9	i	-3	-2	/	3	0
CC(C)(C)C(=O)/C=C(\N)c1ccccn1	1	1	i	/	-1	-20	-4	-1
Cc1cnc(C)c(N2CCC(C(=O)NCc3cccs3)CC2)n1	-1	-1	i	/	8	-16	7	5
O=C(Nc1ncccc1O)c1cc2ccccc2o1	10	9	i	-31	21	-55	/	/
CC(C)(C)NS(=O)(=O)c1cc(C(=O)Nc2sccc2C#N)ccc1Cl	-22	-9	i	19	/	/	-6	94	eIF4H inh retest=22;PABP FP inh retest=23
Nc1[nH]n(-c2ccccc2)c(=O)c1N=Nc1ccccc1[N+](=O)[O-]	4	2	i	-236	-2	-7	0	6
CCN1C(=O)[C@H]2[C@@H](c3ccc(C(F)(F)F)cc3)N[C@]3(CCCN(Cc4ccco4)C3=O)[C@H]2C1=O	2	4	/	-93	/	-5	/	/
COc1ccc(C(=O)N2CCN(c3ncnc4c(-c5ccccc5)nsc34)CC2)cc1	1	-7	i	12	/	-11	-9	-5
CNC(=O)CSCc1c(Cl)cccc1Cl	-1	5	i	/	-10	-9	-4	-8
O=C(Nc1ccc(F)cc1)c1ccccc1Oc1ccc(C(F)(F)F)cc1[N+](=O)[O-]	-10	-9	i	-3	65	/	0	-4
Brc1cc(Br)c(Oc2cc(Br)c(Br)cc2Br)cc1Br	-4	-2	/	/	15	-10	/	/
(list continues)
SMILES	MT1-MMP act inh	MT1-MMP act inh RFP	Rce1 inhib	HIV Env fusion	CSC inhib	UUG fidelity	PABP FP inh	eIF4H inh	others
COCCn1c(-c2ccc(OC)cc2)nc2ccccc21	-3	-3	i	-220	-8	/	-3	-6
COc1ccc(S(=O)(=O)Nc2c(C)c(C)cc3c2ncn3C)cc1	1	2	i	-7	13	-24	3	3
Cc1occc1C(=O)NCc1nc(-c2ccccc2)no1	-2	-3	i	13	0	-10	0	-11
CCC(C)NC(=O)CCc1c(C)nc2c(c(C)nn2-c2ccccc2)c1C (stereo unspecified)	-2	-2	i	17	-4	-12	-4	0
CN1CCCN=C1/C=C/c1cccs1	-4	-1	i	-18	-14	-6	-1	-3

Assay outcomes as filed in PubChem.
